Compound activity from PubChem.
VDR inhibitor: vitamin D3 receptor (human) inhibition | VDR-SRC2-3 peptide fluorescence polarization, 2 h | Potency, µM, without a hit: max response, negative = inhibition, actives largely listed as inhibitors | 400,000 compounds, 0.93% hits; active = well fitted inhibition curve with a large enough effect; inconclusive = small, poorly fitted or top-dose-only effect, or another doubt; inactive = no such curve, though single readings can be large or run the other way; also: series mostly up to about 120 µM
Target sequence (P11473 whole entry, looked up): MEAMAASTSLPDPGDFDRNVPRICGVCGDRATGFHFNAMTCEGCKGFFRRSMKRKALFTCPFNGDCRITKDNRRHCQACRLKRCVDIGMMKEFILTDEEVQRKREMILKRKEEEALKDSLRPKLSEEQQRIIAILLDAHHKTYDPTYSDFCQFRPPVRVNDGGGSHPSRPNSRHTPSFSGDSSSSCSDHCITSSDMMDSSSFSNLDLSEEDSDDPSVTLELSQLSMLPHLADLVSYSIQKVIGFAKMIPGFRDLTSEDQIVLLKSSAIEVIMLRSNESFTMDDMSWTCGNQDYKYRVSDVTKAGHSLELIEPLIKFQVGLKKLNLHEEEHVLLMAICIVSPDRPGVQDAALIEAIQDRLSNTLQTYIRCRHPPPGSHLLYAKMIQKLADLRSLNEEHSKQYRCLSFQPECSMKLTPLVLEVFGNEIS
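Signal is fluorescence polarization, reporting how far test compounds block the interaction of VDR with the SRC2-3 coregulator peptide after a 2 h room-temperature incubation.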
Numbers without * were called inactive; u = inconclusive; & = joins results of further samples. % is scaled to controls: 0 for no effect and ±100 for the full control effect; potency is read from the fitted curve at half-maximal effect. These rows are one share of the data (hit frequency here may not be typical).

SMILES	VDR inhibitor
CCCCN1C(=O)/C(=C/C=C/c2ccco2)C(=O)NC1=S	u
COCC(=O)N1CCC2(CCCN(Cc3ccncc3)C2)CC1	-7%
COc1ccc(-c2ccc(OC)c(OC)c2OC)cc1	2%
CN1CCC(OC(=O)c2cccc(F)c2)CC1	-1%
CCCC[n+]1cc(/N=C(\[O-])OC)on1	7%
C=CCn1c(O)c(C(C)=NCCc2ccccc2)c(=O)[nH]c1=O	20%
O=C(O)COc1ccc(Cl)cc1Cl	-19%&-6%
O=[N+]([O-])c1ccc(N2CCNCC2)cc1N1CCCCCC1	0%
Cc1c(C(=O)c2ccc3ccccc3c2)c2cccc3c2n1[C@H](CN1CCOCC1)CO3	-2%
CCCCOc1ccc(CN2CCN(CC)CC2)cc1	-11%
OCCNc1c2c(nc3ccccc13)CCCC2	9%
COc1cc(CN=C(C)c2c(O)n(C3CCCCC3)c(=O)[nH]c2=O)cc(OC)c1	8%
O=C1C(=Cc2ccccc2)N2CCC1CC2	8%
Cc1cccc(Cn2cc(C=O)c3ccccc32)c1	11%
O=[N+]([O-])c1ccc(CNCCc2ccccc2)cc1	-2%
CN(C(=O)Oc1ccc([N+](=O)[O-])cc1)c1ccccc1	-11%
Cc1cc(-c2cc(C)c(N)c(C)c2)cc(C)c1N	-12%
O=C1NC(=O)C(Cc2ccccc2)(Cc2ccccc2)C(=O)N1Cc1ccccc1	-4%
Cc1cccc(-n2c(O)c(C=Nc3ccc(S(N)(=O)=O)cc3)c(=O)[nH]c2=O)c1	-3%
Cc1cc(N(CCCl)CCCl)ccc1C=Cc1ccncn1	2%
Cc1[nH]c2ccccc2c1CCN	9%
O=C(c1ccc(F)cc1)N1CCC2(CC1)OCCO2	2%
COc1ccc(CCNCc2sccc2C)cc1OC	6%
CC(=O)Nc1ccc(S(=O)(=O)NC(CC(=O)N2CCC3(CC2)OCCO3)C(C)C)cc1 (configuration not stated)	4%
Cc1cccnc1-n1c(-c2ccccc2)nc2ccccc2c1=O	11%
CCN1CCN(c2ccc([N+](=O)[O-])cc2C(=O)OC)CC1	12%
CN(C)C(=O)Oc1cc(OC(=O)N(C)C)cc(C(O)CNC(C)(C)C)c1 (configuration not stated)	-5%&-2%&0%
Cc1nc2ccccc2c(=O)n1-c1ccc(Cl)c(Cl)c1	-6%
COc1ccccc1N1CCN(CCc2ccccc2)CC1	-9%
CNC(=O)OCc1n(C)cc[n+]1C	-14%
COC(=O)C1=C(c2ccc3ccccc3c2)C[C@@H]2CC[C@H]1N2C(=O)NCc1ccc(C(F)(F)F)cc1	0%
CN1CCN(c2ccc([N+](=O)[O-])c(SCCO)c2)CC1	7%
CN1C(=O)N(C)C(=O)C2(Cc3cc(NC(=O)c4ccccc4Cl)ccc3N3CCCC32)C1=O (configuration not stated)	-8%
CC1[C@H]2Cc3ccc(O)cc3[C@]1(C)CCN2C (some centres not stated)	-1%
c1nc2nc3c(c(N4CCNCC4)n2n1)CCCC3	5%
CN1CC(C(=O)c2ccc(F)cc2)C(c2c(F)cccc2Cl)C1 (configuration not stated)	-7%
CC(C)(c1ccc(OC[C@@H]2CO2)cc1)c1ccc(OC[C@H]2CO2)cc1	5%
Cc1ccc2c(c1)C1CN(C)CCC1N2C(=O)c1ccco1 (configuration not stated)	8%
Cc1ccc(C(=O)n2cc(CCN3CCS(=O)(=O)CC3)c3ccccc32)cc1	9%
COc1ccc2c(c1)c(C(=O)CN1CCN(C)CC1)c(C)n2Cc1ccccc1	-8%
COc1cccc2c1C(=O)c1c(O)c3c(c(O)c1C2=O)CC(O)(C(C)=NO)CC3OC1CC(N)C(O)C(C)O1 (configuration not stated)	-9%
O=C(NC(=S)N1C[C@H]2C[C@H](C1)c1cccc(=O)n1C2)c1ccc(Cl)cc1Cl	-11%
COC(=O)C1=CCCN(C)C1	0%&19%&0%&-8%&8%
c1ccc2c(c1)OC[C@@H](C1=NCCN1)O2	-7%
O=[N+]([O-])c1ccc(NCCCN2CCOCC2)nc1	-16%
CCCC(C)C1(CC)C(=O)NC(=Nc2ccc(OC)cc2)NC1=O (configuration not stated)	-13%
CC(C)Oc1cccc(C(=O)C2CCCN(Cc3ccon3)C2)c1 (configuration not stated)	3%
CCC(=NCc1cc(OC)cc(OC)c1)c1c(O)n(C2CCCCC2)c(=O)[nH]c1=O	-18%
CN1CCN(c2oc(-c3ccc(COc4ccccc4)o3)nc2C#N)CC1	-8%
Cc1ccc(CC(=O)N2CCN(Cc3ccccc3)CC2)cc1	-5%
CNC1[C@@H](O)C(OC2C(N)C[C@H](N)[C@@H](O[C@@H]3OC(C(C)O)C(O)C(O)C3N)C2O)OC[C@]1(C)O (some centres not stated)	14%
CCCCn1c(O)c(C=NC2CCCCC2N)c(=O)[nH]c1=O (configuration not stated)	-3%
CC1CC2(O)c3nonc3CCC2N1O (configuration not stated)	-8%
C#CCN(C)C(C)Cc1ccccc1 (configuration not stated)	9%
COc1ccc(CC2NCC(O)C2OC(C)=O)cc1 (configuration not stated)	-12%
CN1CC[C@]23c4c5ccc(OC6OC(C(=O)O)[C@@H](O)C(O)[C@H]6O)c4OC2C(O)C=CC3[C@H]1C5 (some centres not stated)	5%
N#Cc1ccc(NC(=O)CN2C(=O)NC3(CCCCCCC3)C2=O)cc1Cl	-3%
O=C(O)C(Cc1cnc[nH]1)NS(=O)(=O)c1ccc(Br)cc1 (configuration not stated)	5%
CC(=O)N1CCN(Cc2ccc(Cl)nc2)CC1	3%
COc1cc2c(c(OC)c1O)-c1ccc(OC)c(=O)cc1C(NC(=O)C(F)(F)F)CC2 (configuration not stated)	-4%
The listing continues.
SMILES	VDR inhibitor
COc1ccc(CN2CCCC(C(=O)c3ccccc3SC)C2)cc1O (configuration not stated)	-18%
COC(=O)C1=C(c2ccccc2OCc2ccccc2)C[C@@H]2CC[C@H]1N2C(=O)NCc1ccc([N+](=O)[O-])cc1	-17%
CCCCCC[N+](=O)[O-]	15%
COC(=O)C1=C(c2ccc(-c3ccccc3)c(F)c2)C[C@@H]2CC[C@H]1N2C(=O)NCc1ccc(F)cc1	-3%
Cc1ccc2c(c1)C1CN(C)CCC1N2C(=O)c1cccnc1Cl (configuration not stated)	-6%
COCCN1Cc2cc(=O)n3c([nH]c4ccccc43)c2C1=N	-9%
CC(=O)OCC(=O)[C@@H]1CC[C@H]2[C@H]3CC[C@H]4C[C@@H](O)CC[C@]4(C)[C@@H]3C(=O)C[C@@]12C	-1%
CCN1C[C@@]2(OC(=O)c3ccccc3NC(C)=O)CCC(OC)[C@@]34C5CC6C(OC)C[C@@](O)(C(CC23)[C@@H]14)C5(O)C6OC (some centres not stated)	18%
CCC(COC(=O)NC)NC(=O)Oc1ccccc1 (configuration not stated)	-8%
COc1ccc(C(=O)C2CN(C)CC2C(=O)c2ccc(OC)cc2)cc1 (configuration not stated)	-5%
CN(C)CCN(CC1CCCN(Cc2ccccc2F)C1)C(=O)Cc1c(F)cccc1F (configuration not stated)	-12%
CC(C)(C)c1o[nH]c(=O)c1CC(N)C(=O)O (configuration not stated)	-3%&0%
O=C(Nc1ccccc1)c1cccn(Cc2ccccc2)c1=O	14%
CN1CC(Br)C(=O)NC1=O (configuration not stated)	0%
CCOc1ccc(-c2cc(C)[n+](CCN(CC)CC)c(-c3ccc(OCC)cc3)c2)cc1	15%
COC(=O)C1=CO[C@@H](C)[C@@H]2CN3CC[C@]4(C(=O)Nc5ccccc54)[C@@H]3C[C@H]12	-4%
C=CCCC1(C(C)C)C(=O)NC(=S)NC1=O	u
Cc1ccc(C(=O)C2CN(C)CC2C(=O)c2ccc(C)cc2)cc1 (configuration not stated)	2%
CC(C)(C)P(=O)(NCc1ccccc1)c1ccccc1 (configuration not stated)	10%
COC1CC(=C(c2cccs2)c2cccs2)C[N+](C)(C)C1 (configuration not stated)	-16%
CCOC(=O)c1ccc(N=C(C)c2c(O)[nH]c(=O)[nH]c2=O)cc1	9%
COC1C(O)C(C)OC(OC2CCC3(C)C(CCC4C3C(O)CC3(C)C(C5=CC(=O)OC5)CCC43O)C2)C1O (configuration not stated)	4%
CC/C=C\C/C=C\C/C=C\C/C=C\C/C=C\CCCC(=O)NCCc1ccc(O)c(O)c1	-15%
COC(=O)C1=C(c2ccc(C(C)=O)cc2)C[C@@H]2CC[C@H]1N2C(=O)NCC1CC1	-16%

Random excerpt: two entries already listed
SMILES	VDR inhibitor
CCOc1ccc(-c2cc(C)[n+](CCN(CC)CC)c(-c3ccc(OCC)cc3)c2)cc1	15%
CC(C)(C)P(=O)(NCc1ccccc1)c1ccccc1 (configuration not stated)	10%

Other compounds follow.
SMILES	VDR inhibitor
Cc1ccc(O)c(C(=O)c2cc(C(=O)NCCC(C)C)c(=O)n(CCC(C)C)c2)c1	19%
O=c1c2ccccc2nc(-c2ccco2)n1-c1ccncc1	1%
CCCCOc1ccc(CN2C(=O)C(=O)c3cc(C)ccc32)cc1OC	u
CC(C)OC(=O)C1C(=O)NC2(C)CC1c1ccccc1O2 (configuration not stated)	12%
CCCC(C)C1(CC)C(=O)N=C(S)NC1=O (configuration not stated)	5%
O=C(N/N=C/c1c(O)n(CCc2ccccc2)c(=O)[nH]c1=O)c1ccccc1	-14%
COc1ccc(CC2NCCc3cc(OC)c(OC)cc32)cc1OC (configuration not stated)	5%
COCCNC(=O)N1[C@H]2CC[C@@H]1C(C(=O)OC)=C(c1ccc(OC)c(OC)c1)C2	-14%
COc1ccc(C(=O)C2CCCN(Cc3ccon3)C2)c(OC)c1 (configuration not stated)	-5%
OCC12CO[C@@H]3c4ccccc4[C@H](OC1)N32 (some centres not stated)	-9%
CCCCn1c(O)c(C(C)=NCc2ccc(F)cc2)c(=O)[nH]c1=O	u
C[N+]12CN3CN(CN(C3)C1)C2	0%

At a glance, part of the list above.
SMILES	VDR inhibitor
CCCCN1C(=O)/C(=C/C=C/c2ccco2)C(=O)NC1=S	u
COCC(=O)N1CCC2(CCCN(Cc3ccncc3)C2)CC1	-7%
COc1ccc(-c2ccc(OC)c(OC)c2OC)cc1	2%
CN1CCC(OC(=O)c2cccc(F)c2)CC1	-1%
CCCC[n+]1cc(/N=C(\[O-])OC)on1	7%
C=CCn1c(O)c(C(C)=NCCc2ccccc2)c(=O)[nH]c1=O	20%
O=C(O)COc1ccc(Cl)cc1Cl	-19%&-6%
O=[N+]([O-])c1ccc(N2CCNCC2)cc1N1CCCCCC1	0%
Cc1c(C(=O)c2ccc3ccccc3c2)c2cccc3c2n1[C@H](CN1CCOCC1)CO3	-2%
CCCCOc1ccc(CN2CCN(CC)CC2)cc1	-11%
OCCNc1c2c(nc3ccccc13)CCCC2	9%
COc1cc(CN=C(C)c2c(O)n(C3CCCCC3)c(=O)[nH]c2=O)cc(OC)c1	8%
O=C1C(=Cc2ccccc2)N2CCC1CC2	8%
Cc1cccc(Cn2cc(C=O)c3ccccc32)c1	11%
O=[N+]([O-])c1ccc(CNCCc2ccccc2)cc1	-2%

Following part
SMILES	VDR inhibitor
O=C(CN1C(=O)CN=C(c2ccccc2Cl)c2cc(Cl)ccc21)NCc1ccco1	-13%
CC(C)[C@]12CC(=O)[C@H](C)[C@H]1C2	-1%
CC1CCCC(C)N1/N=C/c1c[nH]c2ccc(Br)cc12 (configuration not stated)	u
Cc1noc(C)c1CC(=O)N1CCCC(N2CCN(c3ccccc3F)CC2)C1 (configuration not stated)	-8%
COc1ccc2[nH]cc(CCN(C)C)c2c1	-2%
CCN1CCN(Cc2ccccc2C)CC1	-2%
CCC(=NCc1cccnc1)c1c(O)n(-c2ccc(Cl)cc2)c(=O)[nH]c1=O	-10%
O=C1NC(=O)N(c2ccc3c(c2)OCO3)C(=O)/C1=C/c1ccc(N2CCCCC2)o1	-7%
CCN1C[C@]2(C)CC[C@H](OC)[C@]34C2[C@H](OC(C)=O)[C@@]2(OCO[C@@]25C[C@H](OC)[C@H]2C[C@]3(O)C5[C@H]2OC)[C@@H]14	13%
Cn1c(O)c(Cc2cccc(Cl)c2Cl)c(=O)n(C)c1=O	u
O=C(Nc1ccccc1OC(=O)N1CCOCC1)N1CCOCC1	6%
CCCCn1c(=O)c(C(=O)Nc2ccccc2F)c(O)c2ccccc21	-14%
CC(C)(C)c1ccc(C(=O)C2CCCN(C3CCC3)C2)cc1 (configuration not stated)	-7%
CC(=O)O[C@@H]1/C=C/[C@](C)(O)C[C@@H](C)C/C=C/[C@H]2[C@@H]3O[C@]3(C)[C@@H](C)[C@H]3[C@H](Cc4ccccc4)NC(=O)[C@@]312	-9%
Cc1ccc(Cn2nc(C)c(C=O)c2Cl)cc1	13%
NC(Cc1nc2ccccc2[nH]1)c1ccc(Cl)cc1 (configuration not stated)	1%
Cc1ccc(-n2c(C)cc(/C=C3\C(=O)NC(=O)N(C)C3=O)c2C)cc1C	-3%
COc1ccccc1CNCCc1ccc(F)cc1	18%
CCCCCCCCCCCCCC(=O)O[C@@H]1[C@@H](C)[C@@]2(O)[C@@H](C=C(CO)C[C@]3(O)C(=O)C(C)=C[C@@H]23)[C@@H]2C(C)(C)[C@]12OC(C)=O	3%
COP(=S)(OC)Oc1ccc([N+](=O)[O-])cc1	16µM*
CN(Cc1ccccc1)C(=O)CN1CCCC1=O	10%
C/C(CC(c1ccccc1)c1c(O)c2ccccc2oc1=O)=N\NC(N)=S (configuration not stated)	-3%
COc1ccc(OC)c(N2C(=O)CC(=O)NC2=O)c1	1%
O=C(Nc1ccc(Br)cc1)N1C[C@H]2C[C@@H](C1)c1cccc(=O)n1C2	-19%
CCN1CCN(Cc2nnnn2C(C)(C)C)CC1	1%
Cc1cc(C=C2C(=O)NC(=S)NC2=O)c(C)n1-c1ccc2c(c1)OCO2	71µM*
COc1cc2ccc(=O)oc2c2ccoc12	2%&-5%
